Source: PubChem
NPYLR7 ag – mosquito NPYLR7 agonism. HEK293T NPYLR7/Galpha15, GCaMP6s calcium fluorescence. activation, % at 10 µM. actives 0.15% (n = 270,000); in the data active means activation above about 40%;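 further: 0% = vehicle and 100% = reference agonist at the receptor; some compounds past the cut are filed as inactive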
NPYLR7 ag max-min – second read-out of NPYLR7 ag, no call of its own (marks repeat the call); activation, %; measured here: Max-Min RFU normalised activation; some inactives read as strong as hits;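 span of the calcium signal over five minutes; 0% = vehicle and 100% = native peptide agonist; compound fluorescence can raise it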
* hit, by the source's call; & = joins results of further samples. A portion of the library, so the mix of outcomes need not match the whole.

`O=C(Nc1ccc(C2SCC(=O)N2c2ccc(F)cc2F)cc1)c1ccccc1F` (stereo unspecified) gave NPYLR7 ag -6 and NPYLR7 ag max-min 4.
Cc1cccnc1CN(C)c1nc(C2CCCC2)nc2c1cnn2C was read as NPYLR7 ag 6 and NPYLR7 ag max-min 2.
Screening Cc1nc(CN2CCN(CCC(=O)Nc3nccs3)CC2)no1 returned NPYLR7 ag -4 and NPYLR7 ag max-min -9.
Screening CN(Cc1cccc(F)c1)[C@H]1[C@H](O)C[C@@H]2CC(C)(C)OC[C@]21O returned NPYLR7 ag 6 and NPYLR7 ag max-min 15.
`CC1CCCCC1OCCNC(=O)N1CCc2sccc2C1C` (stereo unspecified) gave NPYLR7 ag 1 and NPYLR7 ag max-min 2.
Screening COc1cc(/C=C2N=C(/C=C/c3cccc(Cl)c3Cl)OC\2=O)cc(OC)c1OC returned NPYLR7 ag -3 and NPYLR7 ag max-min -6.
Screening CC(NC(=O)C1CCCO1)c1ccccc1Br (stereo unspecified) returned NPYLR7 ag -27 and NPYLR7 ag max-min -29.
O=C(O)c1cccc(-c2csc(/C=C/c3cccnc3)n2)c1 was read as NPYLR7 ag 2 and NPYLR7 ag max-min -2.
Screening COC(=O)c1cc(OC)c(OC)cc1NC(=O)c1ccoc1C returned NPYLR7 ag 25 and NPYLR7 ag max-min 22.
`CC1CCCC(NC(=O)C(C)n2ccnc2-c2ccccc2)C1` (stereo unspecified) gave NPYLR7 ag -22 and NPYLR7 ag max-min -24.
`C=CCN(C(=O)c1cccc(OC)c1)c1nc2ccccc2s1` gave NPYLR7 ag 5 and NPYLR7 ag max-min 14.
Screening Cc1cccc(N2CCn3c2nc2c3c(=O)n(CCCO)c(=O)n2C)c1C returned NPYLR7 ag -8 and NPYLR7 ag max-min -9.
Cn1nccc1C(=O)NC1CCCc2c1cnn2-c1ccc(F)cc1F (stereo unspecified) was read as NPYLR7 ag 10 and NPYLR7 ag max-min 2.
`O=C1Cc2cc(NC(=O)c3c(F)cccc3Cl)ccc2N1` gave NPYLR7 ag -3 and NPYLR7 ag max-min -2.
Screening O=C(NC1CCOC1=O)c1cc(-c2ccccc2)n[nH]1 (stereo unspecified) returned NPYLR7 ag -6 and NPYLR7 ag max-min -9.
`CC(C)c1cc(C(=O)N(C)C2CCCCC2S(C)(=O)=O)n[nH]1` (stereo unspecified) gave NPYLR7 ag -23 and NPYLR7 ag max-min -25.
Screening Fc1cccc(-c2nc3c(OCc4ccccc4)cccn3c2NC2CCCCC2)c1 returned NPYLR7 ag -11&1 and NPYLR7 ag max-min -10&0.
Screening COc1ccc(CCN(Cc2ccc(C)o2)C(=O)CN(CCN2CCCC2)C(=O)c2ccccc2C)cc1OC returned NPYLR7 ag -2 and NPYLR7 ag max-min -1.
CC(C)CC1CC(C)(c2csc(NNC(=O)c3ccccc3)n2)OC1=O (stereo unspecified) was read as NPYLR7 ag -4 and NPYLR7 ag max-min -7.
`Cc1cc(Br)ccc1Nc1ncnc2c1nnn2C` gave NPYLR7 ag 10 and NPYLR7 ag max-min 2.
Cc1noc(-c2ccccc2Cl)c1C(=O)NCc1ccsc1 was read as NPYLR7 ag 10 and NPYLR7 ag max-min 12.
Screening O=C(Cn1cnc2c(Cl)cc(Cl)cc2c1=O)NC1CCCCC1 returned NPYLR7 ag 4 and NPYLR7 ag max-min -1.
`COc1cn(CC(=O)NCc2ccc(C)cc2)c(CSc2ncccn2)cc1=O` gave NPYLR7 ag -4 and NPYLR7 ag max-min -10.
Screening CC(C)CCNC(=O)Cn1cc(C(F)(F)F)cc(Cl)c1=O returned NPYLR7 ag 0 and NPYLR7 ag max-min -5.
For COc1ccc(C)c2sc(N(CCCn3ccnc3)C(=O)/C=C/c3cccs3)nc12 the results were NPYLR7 ag -20 and NPYLR7 ag max-min -25.
For CC(C)(C)c1ccc(COc2coc(CN3CCN(S(=O)(=O)c4ccccc4S(C)(=O)=O)CC3)cc2=O)cc1 the results were NPYLR7 ag -12 and NPYLR7 ag max-min 1.
Screening O=C1CCCc2cc(C(=O)Nc3cccc(-c4nnnn4C4CC4)c3)ccc2N1 returned NPYLR7 ag 3 and NPYLR7 ag max-min 8.
CN(Cc1ccccc1C(F)(F)F)C(=O)CCc1ccc(S(N)(=O)=O)cc1 was read as NPYLR7 ag 0 and NPYLR7 ag max-min 1.
`Oc1ccc(C(F)(F)F)cc1` gave NPYLR7 ag 0 and NPYLR7 ag max-min 1.
`O=C(O)CC(S)C(=O)O` (stereo unspecified) gave NPYLR7 ag -23 and NPYLR7 ag max-min -31.
Screening CN(Cc1nc2ccc(F)cc2[nH]1)C(=O)/C=C/c1ccccc1 returned NPYLR7 ag -2 and NPYLR7 ag max-min -3.
For Cc1noc(C)c1S(=O)(=O)N1CCCC1C(=O)O (stereo unspecified) the results were NPYLR7 ag 0 and NPYLR7 ag max-min -3.
Screening O=C(COCc1nc2ccccc2s1)NC1=NCCS1 returned NPYLR7 ag 9 and NPYLR7 ag max-min 3.
For O=C(NC1CCCC1n1ccnc1)c1cccc(Br)c1 (stereo unspecified) the results were NPYLR7 ag 7 and NPYLR7 ag max-min 5.
For Cc1ccc(Cl)c(OC2CC3CCC(C2)N3C(=O)c2ccc(CSc3ccccn3)cc2)c1 (stereo unspecified) the results were NPYLR7 ag 6 and NPYLR7 ag max-min -8.
`O=C1C(Cl)=C(N2CCCC2)C(=O)N1c1ccc(F)cc1` gave NPYLR7 ag 7 and NPYLR7 ag max-min 13.
For Cc1cc(COC(=O)C2=NN(c3ccc(C)c(Cl)c3)C(=O)CC2)on1 the results were NPYLR7 ag 2 and NPYLR7 ag max-min 1.
For COc1ccc([C@H](C)NC(=O)c2c(C)noc2-c2ccccc2C)cc1 the results were NPYLR7 ag -4 and NPYLR7 ag max-min -1.
Screening O=C(c1nn(-c2ccccc2)c(=O)n(Cc2ccc(C(F)(F)F)cc2)c1=O)N1CCOCC1 returned NPYLR7 ag 11 and NPYLR7 ag max-min 14.
`N#CC(C(=O)C1COCCO1)c1nc2cc(C(F)(F)F)ccc2s1` (stereo unspecified) gave NPYLR7 ag 0 and NPYLR7 ag max-min -5.
`CCCOc1ccc(CNC(CC)CO)cc1Cl` (stereo unspecified) gave NPYLR7 ag 12 and NPYLR7 ag max-min 4.
For Nc1nc(Cl)cc(Nc2cccc(COC3CCCCC3)c2)n1 the results were NPYLR7 ag 7 and NPYLR7 ag max-min 5.
Screening CC(C)Cc1nc(N2CCCN(C(=O)c3ccccc3F)CC2)c2c(-c3cccc(C(F)(F)F)c3)noc2n1 returned NPYLR7 ag 20 and NPYLR7 ag max-min 13.
Cc1cccc(OCCNC(=O)CN2C(=O)NC3(CCCCCCC3)C2=O)c1 was read as NPYLR7 ag 18 and NPYLR7 ag max-min 9.
`COCCn1cc(NC(=O)Nc2c(C)cccc2C)c2ccccc21` gave NPYLR7 ag -2 and NPYLR7 ag max-min -4.
`C=CCc1c(C)nc(SC)[nH]c1=O` gave NPYLR7 ag 0 and NPYLR7 ag max-min 6.
`c1ccc(CNc2nc3c(-c4ccccc4)nnn3c3ccccc23)cc1` gave NPYLR7 ag -8 and NPYLR7 ag max-min -16.
`O=C(Nc1cccc(Cl)c1)N1CCSC1c1ccc2c(c1)OCCO2` (stereo unspecified) gave NPYLR7 ag 12 and NPYLR7 ag max-min 19.
For Cn1cccc1-c1cc(C(=O)N2CCN(c3cccc(C(F)(F)F)c3)CC2)n(-c2ccc(Cl)c(Cl)c2)n1 the results were NPYLR7 ag 19 and NPYLR7 ag max-min 11.
`CCCN1CC2=C(C1=O)C(c1ccc(OCC)cc1)NC(=O)N2` (stereo unspecified) gave NPYLR7 ag 2 and NPYLR7 ag max-min 1.
`CCOC(=O)c1c(NC(=O)Cc2ccc(Cl)cc2)sc(C(=O)Nc2ccccc2F)c1C` gave NPYLR7 ag -5 and NPYLR7 ag max-min 0.
For Cc1ncc(CO)c(CN2CCCCC2c2ccc(F)cc2)c1O (stereo unspecified) the results were NPYLR7 ag 6 and NPYLR7 ag max-min 3.
O=C(O)c1csc(Br)c1Br was read as NPYLR7 ag 0 and NPYLR7 ag max-min -2.
For Cc1noc(C)c1CCCNC(=O)c1ccc(-c2ccc3c(c2)OCO3)nc1 the results were NPYLR7 ag -2 and NPYLR7 ag max-min -3.
Screening O=C(Nc1ccc(Cl)cc1)N1CCC(C(=O)N2CCCCCC2)CC1 returned NPYLR7 ag 5 and NPYLR7 ag max-min 0.
Screening COC(=O)[C@H](Cc1ccc([N+](=O)[O-])cc1)NC(=O)c1cccc2ccccc12 returned NPYLR7 ag -5 and NPYLR7 ag max-min -13.
Screening COc1ccnc(N(C)CC(=O)Nc2cccc(F)c2)n1 returned NPYLR7 ag 14&-1 and NPYLR7 ag max-min 6&-2.
`COCCNC(=O)C1(C)CCCN(CC(=O)c2ccc3[nH]c(=O)oc3c2)C1` (stereo unspecified) gave NPYLR7 ag 5 and NPYLR7 ag max-min -1.
For BrC12CC3CC(C1)C(=NNc1nn[nH]n1)C(C3)C2 the results were NPYLR7 ag -14 and NPYLR7 ag max-min -24.
For CCCN(CC(=O)N1CCn2cccc2C1c1cccc(F)c1)C(=O)Nc1ccc([N+](=O)[O-])cc1 (stereo unspecified) the results were NPYLR7 ag 29 and NPYLR7 ag max-min 21.
For CCC(C)c1ccc(O)c(NC(=S)NC(=O)CC(C)C)c1 (stereo unspecified) the results were NPYLR7 ag -13 and NPYLR7 ag max-min -19.
CC(C)Cn1nc(C(=O)O)c2c1CCC(N1CCOc3ccccc3C1)C2 (stereo unspecified) was read as NPYLR7 ag 3 and NPYLR7 ag max-min 4.
Screening O=C(/C=C/c1ccc2c(c1)CCO2)N1CCN(c2ncccn2)CC1 returned NPYLR7 ag 10 and NPYLR7 ag max-min 1.
COc1ccc(C(=O)N(Cc2cccc(C)c2)[C@@H]2CCCCC2NC(=O)[C@H]2CCCN2)cc1 (stereo partly specified) was read as NPYLR7 ag -8 and NPYLR7 ag max-min -6.
For CC(C#N)c1cccc(C(=O)N2CCOC(COCc3c(Cl)cccc3Cl)C2)c1 (stereo unspecified) the results were NPYLR7 ag 20 and NPYLR7 ag max-min 27.
Screening O=C(NCc1ccccc1)c1cccc(S(=O)(=O)NCc2ccccc2)c1 returned NPYLR7 ag 5 and NPYLR7 ag max-min 6.
CCN(Cc1ccncc1)C1CCCN(C(=O)C(C)(C)c2ccccc2)C1 (stereo unspecified) was read as NPYLR7 ag 6 and NPYLR7 ag max-min 3.
c1cncc(-c2cccc(-c3ccn[nH]3)c2)c1 was read as NPYLR7 ag 13 and NPYLR7 ag max-min 3.
O=S1(=O)CCN=C2SC=C(c3cccc4ccccc34)N21 was read as NPYLR7 ag 4 and NPYLR7 ag max-min 2.
Screening O=C(O)c1ccccc1-c1c(-c2ccccc2)ncn1CC1CCCO1 (stereo unspecified) returned NPYLR7 ag 14 and NPYLR7 ag max-min 3.
For CCCc1cc(=O)n2[nH]c(COC)c(-c3ccc(OC)cc3)c2n1 the results were NPYLR7 ag -15 and NPYLR7 ag max-min -20.
Cc1cccc(C)c1Nc1c(-c2ccccc2Cl)nc2c(OCc3ccccc3)cccn12 was read as NPYLR7 ag 2 and NPYLR7 ag max-min 9.
`CCCCCc1nnc(NC(=O)C2CCC(CCCC)CC2)s1` (stereo unspecified) gave NPYLR7 ag -1 and NPYLR7 ag max-min -10.
C/C=C(\C)CN1CCN(C)CC1 was read as NPYLR7 ag -14 and NPYLR7 ag max-min -22.
Screening CC(C)CCCC1CN(C(=O)c2ccc(CN(C)C)o2)CCO1 (stereo unspecified) returned NPYLR7 ag 1 and NPYLR7 ag max-min -2.

A draw from above in order of SMILES length, descending.
CC(C)Cn1nc(C(=O)O)c2c1CCC(N1CCOc3ccccc3C1)C2 (stereo unspecified) was read as NPYLR7 ag 3 and NPYLR7 ag max-min 4.
Screening O=C(/C=C/c1ccc2c(c1)CCO2)N1CCN(c2ncccn2)CC1 returned NPYLR7 ag 10 and NPYLR7 ag max-min 1.
Screening O=C(O)c1ccccc1-c1c(-c2ccccc2)ncn1CC1CCCO1 (stereo unspecified) returned NPYLR7 ag 14 and NPYLR7 ag max-min 3.
For CCC(C)c1ccc(O)c(NC(=S)NC(=O)CC(C)C)c1 (stereo unspecified) the results were NPYLR7 ag -13 and NPYLR7 ag max-min -19.
`CCCCCc1nnc(NC(=O)C2CCC(CCCC)CC2)s1` (stereo unspecified) gave NPYLR7 ag -1 and NPYLR7 ag max-min -10.
c1cncc(-c2cccc(-c3ccn[nH]3)c2)c1 was read as NPYLR7 ag 13 and NPYLR7 ag max-min 3.

Pulled by structure from the entries so far, 2 records:
For CCCc1cc(=O)n2[nH]c(COC)c(-c3ccc(OC)cc3)c2n1 the results were NPYLR7 ag -15 and NPYLR7 ag max-min -20.
CC(C)Cn1nc(C(=O)O)c2c1CCC(N1CCOc3ccccc3C1)C2 (stereo unspecified) was read as NPYLR7 ag 3 and NPYLR7 ag max-min 4.

(continued)
`CCn1cc(CN2CCC(N3CCCC(C(=O)N4CCCC4)C3)CC2)cn1` (stereo unspecified) gave NPYLR7 ag 5 and NPYLR7 ag max-min 3.
Screening CC(C)(C)C(=O)Nc1nc(-c2cccc([N+](=O)[O-])c2)cs1 returned NPYLR7 ag -6 and NPYLR7 ag max-min -5.
For CCc1ccccc1N=C1S/C(=C/c2ccc([N+](=O)[O-])cc2)C(O)=C1C(=O)OC the results were NPYLR7 ag -3 and NPYLR7 ag max-min 2.
Cc1cnn(-c2nc(-c3ccco3)cc(C(F)(F)F)n2)c1 was read as NPYLR7 ag 13 and NPYLR7 ag max-min 6.
Screening Cc1nc([C@@H](N)c2ccccc2Cl)n(-c2ccc(F)cc2)n1 returned NPYLR7 ag -9 and NPYLR7 ag max-min -16.
`CCCOc1ccc(Oc2cc(C)nc(SC)n2)nn1` gave NPYLR7 ag 3 and NPYLR7 ag max-min 1.
`CCSc1nnc(NC(=O)c2ccc3c(c2)OCO3)s1` gave NPYLR7 ag -6 and NPYLR7 ag max-min -8.
Screening C=CCN(CC=C)c1nc(N)c(C#N)c(CC#N)c1C#N returned NPYLR7 ag 9 and NPYLR7 ag max-min 11.
Screening N#Cc1ccc(-c2ccc3c(n2)C(=O)N(CC(=O)NCCN2CCOCC2)C3)cc1 returned NPYLR7 ag 0 and NPYLR7 ag max-min -9.
